p53 mut binder: binders of human mutant p53, primary screen, biochemical, small molecule microarray, anti-GST fluorescence; mutant tumor protein p53 (GST-tagged), Homo sapiens; small molecule microarray binding; calls only; 17,000 compounds, 0.4% hits;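 active means compounds whose four printed spots each glow above background more than chance allows, each with a p-value under 7%; compounds were printed on slides so no solution concentration is given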;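 further: about 2 pmol printed per array spot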
ID4 binder: binders of human ID4 protein, primary screen, biochemical, small molecule microarray, single point | DNA-binding protein inhibitor ID-4 (Homo sapiens), P47928 | Flag-ID4 binding, fluorescence F/B | calls only | 31,000 compounds, 1.2% hits | AID 624137, 2012;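 active means spot signal over background at p below 0.07 in all four prints; compounds were printed on slides so no solution concentration is given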;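 further: a binder raises fluorescence above local background on the spot; about 2 pmol printed per array spot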
Target sequence (P47928 whole entry, looked up): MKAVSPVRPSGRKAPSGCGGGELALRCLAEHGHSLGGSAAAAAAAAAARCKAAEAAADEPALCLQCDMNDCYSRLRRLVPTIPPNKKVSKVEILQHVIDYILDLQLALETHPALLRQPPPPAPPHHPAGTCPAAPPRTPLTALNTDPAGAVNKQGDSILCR
Myc binder: binders of human c-Myc, primary screen, biochemical, small molecule microarray, anti-His fluorescence; calls only; His-c-Myc binding; Myc proto-oncogene protein (Homo sapiens), P01106; 17,000 compounds, 1.5% hits;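 active means spot fluorescence over background with P-value below 7% in all four replicate spots, showing protein binding; compounds were printed on slides so no solution concentration is given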;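 further: score is binary with 100 for all four spots passing and 0 otherwise; about 2 pmol printed per array spot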
Target sequence (P01106 whole entry, looked up): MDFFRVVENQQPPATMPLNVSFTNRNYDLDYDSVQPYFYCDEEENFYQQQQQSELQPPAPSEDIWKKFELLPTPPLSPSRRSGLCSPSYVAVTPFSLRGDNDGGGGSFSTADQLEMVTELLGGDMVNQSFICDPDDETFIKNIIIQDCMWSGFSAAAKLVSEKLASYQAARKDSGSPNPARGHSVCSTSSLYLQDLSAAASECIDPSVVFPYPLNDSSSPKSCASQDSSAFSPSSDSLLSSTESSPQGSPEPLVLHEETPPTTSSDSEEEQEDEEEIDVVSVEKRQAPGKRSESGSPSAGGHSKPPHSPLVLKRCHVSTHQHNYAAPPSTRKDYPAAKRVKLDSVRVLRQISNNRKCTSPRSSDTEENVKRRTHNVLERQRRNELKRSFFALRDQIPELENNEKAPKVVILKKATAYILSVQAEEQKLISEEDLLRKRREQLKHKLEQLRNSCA
STAT3 SMM: STAT3 binders, primary screen, biochemical, small molecule microarray, single point, set 2; AID 624138, 2012; 17,000 compounds, 0.2% hits; His-STAT3 binding, anti-His fluorescence; calls only; Signal transducer and activator of transcription 3 (Homo sapiens), P40763;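 active means compounds whose four printed spots each show fluorescence over background unusually high for their array block, chance value under 7%; compounds were printed on slides so no solution concentration is given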;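 further: about 2 pmol printed per array spot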
Calls only; i = inactive; nt = no result given; + = active, no number. The list is partial (hit frequency here may not be typical).

SMILES	p53 mut binder	ID4 binder	Myc binder	STAT3 SMM
C=C1C(O)CC2C(C(=O)OC)=CO[C@@H](O[C@@H]3O[C@H](CO)[C@@H](O)[C@H](O)[C@H]3O)C12 (some centres not stated)	i	i	i	i
O=C(O)C1C2C=CC(C2)C1C(=O)Nc1cccc([N+](=O)[O-])c1 (configuration not stated)	i	i	i	i
C[C@H](CO)N1C[C@H](C)[C@H](CN(C)Cc2ccncc2)Oc2ccc(NC(=O)Nc3ccccc3)cc2C1=O	i	i	i	i
C[C@H]1CN([C@@H](C)CO)C(=O)c2cccc(N(C)C)c2O[C@H]1CN(C)C	i	i	i	i
COc1ccc(NC(=O)Nc2ccc3c(c2)C(=O)N([C@@H](C)CO)C[C@H](C)[C@@H](CN(C)Cc2ccccc2)O3)cc1	i	nt	i	i
C[C@@H]1CN([C@H](C)CO)C(=O)c2cc(NC(=O)Nc3ccccc3)ccc2O[C@@H]1CN(C)Cc1ccc(Cl)c(Cl)c1	i	nt	i	i
CC1OC(OC2C(OC3C(O[C@H]4CC[C@@]5(C)C(CC[C@]6(C)C5CC=C5C7CC(C)(C)CC(O)[C@]7(C)CC[C@]56C)C4(C)C)OC(C(=O)O)C(O)C3O)OCC(O)C2O)C(O)C(O)C1O (some centres not stated)	i	i	+	i
CCn1nc(C)c(NC(=S)NCc2ccco2)c1C	i	i	i	i
Cc1noc(C)c1NC(=O)Nc1cccc2c1O[C@@H](CN(C)Cc1ccncc1)[C@@H](C)CN([C@H](C)CO)C2=O	i	i	i	i
Cc1ccc(N(C(C)C(N)=O)S(C)(=O)=O)cc1C (configuration not stated)	i	i	i	i
Cc1c(N(C)CS(=O)(=O)O)c(=O)n(-c2ccccc2)n1C	i	i	i	i
CNC[C@@H]1OCCCC[C@@H](C)Oc2ccc(NC(=O)C3CCCCC3)cc2C(=O)N([C@@H](C)CO)C[C@H]1C	i	i	i	i
C[C@@H]1CCCCO[C@@H](CN(C)C(=O)c2ccncc2)[C@H](C)CN([C@H](C)CO)C(=O)c2cc(N(C)C)ccc2O1	i	i	i	i
COc1ccc(CN(C)C[C@H]2OCCCC[C@H](C)Oc3ccc(N(C)C)cc3C(=O)N([C@@H](C)CO)C[C@@H]2C)cc1	i	nt	i	i
CC(C)NC(=O)N(C)C[C@@H]1OCCCC[C@H](C)Oc2ccc(NC(=O)Nc3ccc(C(F)(F)F)cc3)cc2C(=O)N([C@H](C)CO)C[C@@H]1C	i	i	+	i
COc1ccc(CN(C)C[C@@H]2Oc3ccc(NS(=O)(=O)c4ccc(OC)cc4)cc3CC(=O)N([C@@H](C)CO)C[C@H]2C)cc1	i	i	i	i
COc1ccc(CN(C)C[C@@H]2Oc3c(NC(=O)c4ccncc4)cccc3C(=O)N([C@H](C)CO)C[C@H]2C)cc1	i	i	i	i
C[C@H](CO)N1C[C@H](C)[C@H](CN(C)C(=O)Nc2cccc3ccccc23)Oc2c(NC(=O)Nc3cccc4ccccc34)cccc2C1=O	i	i	i	i
COC(=O)CSc1nnc(-c2cc(OC)c(OC)c(OC)c2)n1C	i	i	i	i
C[C@@H]1CN([C@@H](C)CO)C(=O)c2cc(N(C)C)ccc2O[C@@H](C)CCCCO[C@@H]1CN(C)C(=O)CCCN(C)C	i	i	i	i

Reprinted at random: 2 compounds from above
SMILES	p53 mut binder	ID4 binder	Myc binder	STAT3 SMM
C[C@@H]1CN([C@H](C)CO)C(=O)c2cc(NC(=O)Nc3ccccc3)ccc2O[C@@H]1CN(C)Cc1ccc(Cl)c(Cl)c1	i	nt	i	i
COc1ccc(NC(=O)Nc2ccc3c(c2)C(=O)N([C@@H](C)CO)C[C@H](C)[C@@H](CN(C)Cc2ccccc2)O3)cc1	i	nt	i	i

The listing continues.
SMILES	p53 mut binder	ID4 binder	Myc binder	STAT3 SMM
CN1CCN(CCc2ccc(Cl)c(Cl)c2)CC1	i	i	i	i
CCOC(=O)NCC(Cc1ccc(OCCc2nc(-c3ccccc3)oc2C)cc1)N/C(C)=C/C(=O)c1ccc(C(F)(F)F)cc1 (configuration not stated)	i	i	i	i
Cc1noc(C)c1NC(=O)N(C)C[C@H]1OCCCC[C@@H](C)Oc2ccc(N(C)C)cc2C(=O)N([C@H](C)CO)C[C@@H]1C	i	i	i	i
C[C@H](CO)N1C[C@H](C)[C@H](CN(C)C(=O)CCC(F)(F)F)OCCCC[C@H](C)Oc2ccc(NS(=O)(=O)c3cccs3)cc2C1=O	i	i	i	i
COc1ccc(S(=O)(=O)Nc2ccc3c(c2)C(=O)N([C@H](C)CO)C[C@H](C)[C@@H](CN(C)S(=O)(=O)c2cccs2)O3)cc1	i	i	i	i
Cc1ccc(S(=O)(=O)N(C)C[C@@H]2Oc3ccc(NS(=O)(=O)c4ccc(Cl)cc4)cc3CC(=O)N([C@H](C)CO)C[C@@H]2C)cc1	i	nt	i	i
C[C@@H]1CCCCO[C@@H](CN(C)C(=O)CCC(F)(F)F)[C@H](C)CN([C@@H](C)CO)C(=O)c2cc(NS(=O)(=O)c3cccs3)ccc2O1	i	i	i	i
COC(=O)c1ccccc1NC(=O)c1nc2nc(C)cc(C(F)F)n2n1	i	i	i	i
COc1cccc(OC)c1C(=O)Nc1ccc(C(=O)NCC2CCCO2)cc1 (configuration not stated)	i	i	i	i
CSc1cc2c(cc1C(F)(F)F)N(C(=O)Nc1cccnc1)CC2	i	i	i	i
COc1cc(C2Oc3c(O)ccc([C@@H]4Oc5cc(O)cc(O)c5C(=O)[C@H]4O)c3C2CO)ccc1O (some centres not stated)	i	i	i	i
COc1ccc(S(=O)(=O)N(C)C[C@@H]2Oc3ccc(NS(=O)(=O)c4ccc(Cl)cc4)cc3C(=O)N([C@@H](C)CO)C[C@@H]2C)cc1	i	i	i	i
C=C/C=C/[C@@H]1C(=C)CN2[C@H]1[C@H](Cc1ccccc1)OC(=O)C21CCCC1	i	i	i	i
C[C@@H]1CN([C@@H](C)CO)C(=O)c2cccc(NS(=O)(=O)c3ccc(F)cc3)c2O[C@H]1CN(C)C(=O)NC1CCCCC1	i	i	i	i
C[C@H](CO)N1C[C@H](C)[C@H](CN(C)C(=O)Nc2ccc(C(F)(F)F)cc2)Oc2ccc(NC(=O)NC3CCCCC3)cc2CC1=O	i	i	i	i
COc1ccc(CN(C)C[C@H]2Oc3ccc(NC(=O)Cn4cnnn4)cc3CC(=O)N([C@@H](C)CO)C[C@@H]2C)cc1	i	i	i	i
C[C@H]1CCCCO[C@H](CN(C)C(=O)c2ccccc2)[C@@H](C)CN([C@@H](C)CO)C(=O)c2cc(NS(=O)(=O)c3ccccc3)ccc2O1	i	i	i	i
C[C@@H]1CN([C@H](C)CO)C(=O)c2cccc(NC(=O)c3nc4ccccc4s3)c2O[C@H]1CN(C)Cc1ccc(-c2ccccc2)cc1	i	nt	i	i
C[C@@H]1CN([C@H](C)CO)C(=O)c2cc(NC(=O)CCCN(C)C)ccc2O[C@@H](C)CCCCO[C@@H]1CN(C)Cc1ccc2c(c1)OCO2	i	i	i	i
C[C@@H]1CN([C@H](C)CO)C(=O)c2cccc(NC(=O)c3nc4ccccc4s3)c2O[C@H]1CN(C)C(=O)Nc1ccccc1	i	i	i	i

The closing two records of the section before open the next one.
SMILES	p53 mut binder	ID4 binder	Myc binder	STAT3 SMM
C[C@@H]1CN([C@H](C)CO)C(=O)c2cc(NC(=O)CCCN(C)C)ccc2O[C@@H](C)CCCCO[C@@H]1CN(C)Cc1ccc2c(c1)OCO2	i	i	i	i
C[C@@H]1CN([C@H](C)CO)C(=O)c2cccc(NC(=O)c3nc4ccccc4s3)c2O[C@H]1CN(C)C(=O)Nc1ccccc1	i	i	i	i
C[C@H]1CN([C@@H](C)CO)C(=O)Cc2cc(NS(=O)(=O)c3ccccc3)ccc2O[C@H]1CN(C)C(=O)Nc1ccc2c(c1)OCO2	i	i	i	i
C/C=C(/C)C(=O)O[C@@H]1C[C@@H](OC(=O)/C(C)=C\C)[C@](C)(CO)C2C3C(=O)C[C@@H](C)C2[C@]31C	i	i	i	i
O=C(Cn1ccc([N+](=O)[O-])n1)N1CCCc2ccccc21	i	i	i	i
CN1C(=O)CS(=O)(=O)C1c1ccccc1 (configuration not stated)	i	i	i	i
O=C(O)Cn1c(C(=O)Nc2nc(-c3ccccc3Cl)cs2)cc2ccccc21	i	i	i	i
Cc1cc(Nc2ccccc2NC(=O)c2ccc([N+](=O)[O-])cc2)n(-c2ccccc2)n1	i	i	i	i
C[C@@H]1CCCCO[C@@H](CN(C)Cc2ccccc2)[C@@H](C)CN([C@@H](C)CO)C(=O)c2cc(NS(=O)(=O)c3cn(C)cn3)ccc2O1	i	i	i	i
COc1ccc(CN(C)C[C@@H]2Oc3ccc(NC(=O)Nc4ccc(C(F)(F)F)cc4)cc3C(=O)N([C@@H](C)CO)C[C@H]2C)cc1	i	i	i	i
COc1cccc(CN2CCN(C(=S)Nc3ccc(S(N)(=O)=O)cc3)CC2)c1	i	i	i	i
C[C@H](CO)N1C[C@H](C)[C@H](CN(C)C(=O)NC2CCCC2)Oc2ncc(-c3ccc(F)cc3)cc2C1=O	i	i	i	i
C[C@H]1CCCCO[C@H](CN(C)C(=O)Nc2cccc3ccccc23)[C@@H](C)CN([C@@H](C)CO)C(=O)c2cc(N(C)C)ccc2O1	i	i	i	i
COC(=O)C1=CO[C@@H](O[C@@H]2O[C@H](CO)[C@@H](O)[C@H](O)[C@H]2O)C2C1CCC2(C)O (some centres not stated)	i	i	i	i
CN1CCCC(n2nc(Cc3ccc(Cl)cc3)c3ccccc3c2=O)CC1 (configuration not stated)	i	i	i	i
C[C@H]1CN([C@@H](C)CO)C(=O)c2cc(NC(=O)c3ccncc3)ccc2O[C@@H]1CN(C)C(=O)Nc1ccc(F)cc1	i	i	i	i
Cn1nc(-c2ccc(OCC(=O)Nc3cccnc3)cc2)c2ccccc2c1=O	i	i	i	i
Cc1cc(C(=O)Nc2cccc3c2O[C@@H](CN(C)S(=O)(=O)c2cccs2)[C@H](C)CN([C@H](C)CO)C3=O)n(C)n1	i	i	i	i
Cc1noc(C)c1NC(=O)Nc1ccc2c(c1)CC(=O)N([C@@H](C)CO)C[C@H](C)[C@H](CN(C)C)O2	i	i	i	i
Cc1ccc(S(=O)(=O)Nc2ccc3c(c2)CC(=O)N([C@@H](C)CO)C[C@H](C)[C@@H](CN(C)S(=O)(=O)c2ccc(F)cc2)O3)cc1	i	nt	i	i
CN(C)[C@@H]1CCc2[nH]c3ccc(NC(=O)c4ccc(F)cc4)cc3c2C1	i	i	i	i
CCCC(O)c1c(O)cccc1C1(O)CC(=O)C/C1=C\C(O)CC(=O)O (configuration not stated)	i	i	i	i
Cc1noc(C)c1S(=O)(=O)N(C)C[C@@H]1Oc2ccc(NC(=O)CCCN(C)C)cc2CC(=O)N([C@@H](C)CO)C[C@H]1C	i	i	i	i
C[C@@H]1CCCCO[C@H](CN(C)C(=O)Nc2ccccc2)[C@H](C)CN([C@@H](C)CO)C(=O)c2cc(NC(=O)C3CCCCC3)ccc2O1	i	i	i	i
C[C@@H]1CN([C@H](C)CO)C(=O)c2cc(NC(=O)Nc3ccccc3)ccc2O[C@H]1CN(C)C(=O)NC1CCCCC1	i	i	i	i
CC(C)[C@@H]1NC(=O)[C@@H](Cc2c[nH]c3ccccc23)n2c1nc1ccccc1c2=O	i	nt	i	i
COc1ccc(S(=O)(=O)Nc2ccc3c(c2)C(=O)N([C@H](C)CO)C[C@H](C)[C@@H](CN(C)Cc2ccc(C(=O)O)cc2)O3)cc1	i	i	i	i
COc1ccc([Si](C)(C)[C@@H]2[C@@H](CCO)O[C@]3(C(=O)N(Cc4ccc(NC(C)=O)cc4)c4ccccc43)[C@H]2C)cc1	i	i	i	i
CC(Oc1ccccc1)C(=O)NCCN1CCOCC1 (configuration not stated)	i	i	i	i
COc1c(O)c(C(=O)CCc2ccccc2)c(OC)c(OC)c1OC	i	i	i	i
COc1ccc([C@H]2C=C(C(=O)N3CCN(Cc4ccc5c(c4)OCO5)CC3)O[C@@H](OCc3ccc(CO)cc3)C2)cc1	i	i	i	i
CNC[C@H]1OCCCC[C@H](C)Oc2ccc(NC(=O)c3ccncc3)cc2C(=O)N([C@@H](C)CO)C[C@@H]1C	i	i	i	i
C[C@H]1CCCCO[C@H](CN(C)S(=O)(=O)c2ccccc2)[C@@H](C)CN([C@@H](C)CO)C(=O)c2cc(NS(C)(=O)=O)ccc2O1	i	i	i	i
Cc1noc(C)c1S(=O)(=O)N(C)C[C@@H]1Oc2ccc(N(C)C)cc2CC(=O)N([C@H](C)CO)C[C@H]1C	i	i	i	i
Cc1noc(C)c1S(=O)(=O)Nc1cccc2c1O[C@@H](CN(C)C(=O)Nc1ccccc1)[C@@H](C)CN([C@@H](C)CO)C2=O	i	i	i	i

Full records from above. Order of values: p53 mut binder | ID4 binder | Myc binder | STAT3 SMM
Shown for O=C(Cn1ccc([N+](=O)[O-])n1)N1CCCc2ccccc21 → i | i | i | i
Shown for C[C@H]1CN([C@@H](C)CO)C(=O)c2cc(NC(=O)c3ccncc3)ccc2O[C@@H]1CN(C)C(=O)Nc1ccc(F)cc1 → i | i | i | i
Shown for C[C@H]1CCCCO[C@H](CN(C)C(=O)Nc2cccc3ccccc23)[C@@H](C)CN([C@@H](C)CO)C(=O)c2cc(N(C)C)ccc2O1 → i | i | i | i

Bioassay records: PubChem, Broad Institute
